ALR H2O2 inh: inhibitors of human ALR sulfhydryl oxidase, primary screen, biochemical, H2O2 detection, HRP-luminol luminescence, single point; FAD-linked sulfhydryl oxidase ALR (Homo sapiens), P55789; purified ALR, DTT oxidation; inhibition, % (no concentration beside the values); 3.8% of 290,000 active; AID 485317, 2010;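 active means mean and each replicate at 75% or more; inconclusive means only one of the two met; inactive means neither met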;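 further: stock transfer was 7.5 nL into about 7.5 µL; 0% = neutral wells and 100% = wells with inactivated enzyme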
Target sequence (P55789 whole entry, looked up): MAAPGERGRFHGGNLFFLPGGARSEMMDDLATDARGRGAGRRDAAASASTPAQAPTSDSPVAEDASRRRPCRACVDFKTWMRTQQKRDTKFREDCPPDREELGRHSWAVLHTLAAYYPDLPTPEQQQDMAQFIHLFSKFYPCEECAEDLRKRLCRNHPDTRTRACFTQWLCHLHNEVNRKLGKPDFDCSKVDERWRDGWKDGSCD
rRNA inh HTS: reduced GFP signal of wild-type E. coli, primary screen, bacterial rRNA inhibitor project, GFP/RFP fluorescence, OD600, single point | E. coli WT GFP vs humanized-ribosome RFP mutants, 24 h; hits give low values; DMSO median 0, no signal -100 | GFP signal change (wild-type ribosome), % (test concentration not listed) | 1.6% of 350,000 active | AID 720706, 2013;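 active means significant combined selectivity score with lowered wild-type GFP, culture density cut under 30%, mutant RFP and density less affected; inactive means any of these conditions unmet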; further: one replicate is shown; some compounds called inactive have numbers as strong as hits
FGF22 binding: binders of human FGF22 protein, primary screen, FGF22 synaptogenesis inhibitor project, biophysical, thermal shift, single point. Fibroblast growth factor 22 (Homo sapiens), Q9HCT0. recombinant FGF22 thermal shift, SYPRO orange fluorescence; percent of sucrose octasulfate shift, DMSO zero. calls only at 9.99 µM. 1.5% of 340,000 active. AID 651658, 2012;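 active means melting point raised past a set limit in the mean and every replicate; inconclusive means no clear call; three in four hits are not shown here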
Target sequence (Q9HCT0 whole entry, looked up): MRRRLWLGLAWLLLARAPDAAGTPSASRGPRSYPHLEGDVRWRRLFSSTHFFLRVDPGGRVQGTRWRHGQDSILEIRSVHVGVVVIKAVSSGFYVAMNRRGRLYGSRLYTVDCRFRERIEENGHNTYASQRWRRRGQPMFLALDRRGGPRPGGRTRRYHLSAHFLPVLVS
RanGTP-Imp inh: inhibitors of RanGTP-importin-beta interaction, primary screen, biochemical, FRET, CFP-Ran, YFP-importin-beta, homogeneous; AID 2216, 2009; cell-free CFP-Ran/YFP-importin-beta FRET ratio; 1.1% of 300,000 active; inhibition, % (no concentration beside the values);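 active means most replicates above 15%; inconclusive means exactly half above 15%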;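 further: 0% = DMSO wells and 100% = Ran loaded with GDP instead of GTP; wells of about 40 µL received 100 nL stock; the first replicate is given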
MLL AF4-AF9 inh: inhibitors of AF4 peptide binding to AF9, primary screen, biochemical, AlphaScreen, biotin-AF4 peptide, FLAG-AF9, single point. 0.47% of 350,000 active. inhibition, % at 10 µM;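 active means every replicate reaching a set inhibition limit, whatever the replicate mean, cut at about 25% in these data; inconclusive means mean inhibition reaches that limit but some replicates miss it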;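 further: 0% = plate neutral control median and 100% = total signal loss; the record names both 10 and 1 µM as test concentration; the first replicate is given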
Target sequence (P42568 whole entry, looked up): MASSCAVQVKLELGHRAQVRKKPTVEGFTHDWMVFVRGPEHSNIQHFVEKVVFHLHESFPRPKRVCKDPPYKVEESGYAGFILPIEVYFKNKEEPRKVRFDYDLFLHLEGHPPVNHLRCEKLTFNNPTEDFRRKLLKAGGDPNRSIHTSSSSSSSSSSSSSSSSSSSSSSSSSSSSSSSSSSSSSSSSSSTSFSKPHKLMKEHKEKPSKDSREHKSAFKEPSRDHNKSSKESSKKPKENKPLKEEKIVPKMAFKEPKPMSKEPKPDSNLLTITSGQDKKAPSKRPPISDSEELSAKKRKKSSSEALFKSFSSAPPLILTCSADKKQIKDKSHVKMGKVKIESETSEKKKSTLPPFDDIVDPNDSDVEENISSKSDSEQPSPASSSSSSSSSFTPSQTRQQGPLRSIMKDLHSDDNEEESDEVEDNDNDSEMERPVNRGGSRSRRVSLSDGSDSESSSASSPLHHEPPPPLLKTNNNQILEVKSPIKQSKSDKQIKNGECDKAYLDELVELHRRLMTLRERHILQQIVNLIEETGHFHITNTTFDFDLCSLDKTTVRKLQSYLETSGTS
T cruzi repl: inhibitors of intracellular T. cruzi growth, primary screen, luminescence, NIH3T3 host cells; T. cruzi beta-gal in NIH3T3, 90 h; inhibition, % (no concentration beside the values); 1.4% of 300,000 active;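 active means mean inhibition across valid replicates above about 55%, limit read from the data; inconclusive means mean below that limit but half or more replicates reach it; inactive means mean below it, under half of replicates reach it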;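 further: signal also drops with host cell toxicity which is not excluded here; 0% = plate median of DMSO wells and 100% = zero luminescence signal; higher percent means less beta-gal luminescence so fewer parasites; stock transfer was 50 nL into about 50 µL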
Calb FLC: C. albicans growth inhibition with fluconazole, primary screen, CaCi-2 strain, Alamar Blue fluorescence; 0.57% of 300,000 active; growth inhibition, % (no concentration beside the values); C. albicans CaCi-2 (fluconazole-resistant clinical isolate) + fluconazole, 48 h;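 active means most replicates above 75%; inconclusive means exactly half above 75%; inactive means most below 75%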;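 further: all wells also contain fluconazole at 8 µg/ml as a sub-toxic cotreatment; 0% = median of DMSO wells and 100% = median of geldanamycin control wells; wells of about 8 µL received 7.5 nL stock; the first replicate is given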
Beta cell apopt: inhibitors of cytokine-induced beta cell apoptosis, primary screen, luminescence | INS-1E cytokine-induced death, ATP luminescence, 48 h; percent of positive-control rescue, neutral wells zero | protection from apoptosis, % (no concentration beside the values) | 0.8% of 300,000 active | AID 435005, 2010;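 active means all replicates at 75% or more, or half of them and the mean; inconclusive means half reach 75% but not the mean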;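 further: 0% = cytokine-treated negative control wells and 100% = positive control rescue; higher means more ATP so stronger rescue from cytokine killing; wells of about 40 µL received 100 nL stock; the first replicate is given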
rRNA inh HTS OD600: also measured in rRNA inh HTS; calls as there; OD600 change, %; measured here: OD600 growth;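 optical density of the mix in the first replicate; 0 = DMSO median and -100 = no signal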
rRNA inh HTS RFP: further read-out of rRNA inh HTS, marked with its call; RFP signal change, %; measured here: RFP humanized mutant strains;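 first replicate; 0 = DMSO median and -100 = no signal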
The depositor's hits bear a star. These rows are one share of the data; the hit share may differ from the screen's.

What do the screens show for `COc1ccccc1C(=O)Nc1cccc(C(=O)c2ccccc2)c1`?
ALR H2O2 inh: 11; rRNA inh HTS: -37; FGF22 binding: inactive; RanGTP-Imp inh: 4.6; MLL AF4-AF9 inh: inconclusive; T cruzi repl: 4; Calb FLC: 1; Beta cell apopt: 4; rRNA inh HTS OD600: -39; rRNA inh HTS RFP: -6.6

What do the screens show for `Cc1nn(Cc2ccccc2Cl)c(C)c1C(=O)NCC(c1cccs1)N1CCOCC1` (stereo not given)?
rRNA inh HTS: -7; FGF22 binding: inactive; RanGTP-Imp inh: 2.5; MLL AF4-AF9 inh: 0.9; T cruzi repl: -2; Calb FLC: 2; Beta cell apopt: 3; rRNA inh HTS OD600: -8; rRNA inh HTS RFP: -1.1

What do the screens show for `COc1ccc(N2CCN(C(=O)CSc3nc4cc(OC)c(OC)cc4cc3C#N)CC2)cc1`?
ALR H2O2 inh: -13; RanGTP-Imp inh: -2.2; T cruzi repl: 10; Calb FLC: -4; Beta cell apopt: 10

What do the screens show for `Cc1cc(N2CCOCC2)nc2ccc(NC(=O)CCC(=O)N3CCN(c4ccccc4)CC3)cc12`?
ALR H2O2 inh: 30; rRNA inh HTS: 4; FGF22 binding: inactive; RanGTP-Imp inh: -2.7; MLL AF4-AF9 inh: 11; T cruzi repl: 10; Calb FLC: 0; Beta cell apopt: -1; rRNA inh HTS OD600: 2; rRNA inh HTS RFP: -3.0

What do the screens show for `Cc1noc(C)c1C(=O)Nc1ccc(-c2nnc3n2CCCCC3)cc1`?
rRNA inh HTS: 4; FGF22 binding: inactive; MLL AF4-AF9 inh: -1.6; Beta cell apopt: -1; rRNA inh HTS OD600: 6; rRNA inh HTS RFP: -2.6

What do the screens show for `COc1ccc(N2Cc3ccccc3C2=NC(=O)c2cncc(Br)c2)cc1`?
rRNA inh HTS: -2; FGF22 binding: inactive; RanGTP-Imp inh: -2.8; MLL AF4-AF9 inh: 3.3; Calb FLC: -13; Beta cell apopt: -2; rRNA inh HTS OD600: -3; rRNA inh HTS RFP: -1.1

Results for CCC(=NCCc1ccccc1)C1=C(O)CCC1=O ?
ALR H2O2 inh: -6; RanGTP-Imp inh: -2.9; T cruzi repl: -3; Calb FLC: 12; Beta cell apopt: -12

How did CCOc1ccc(NC(=O)CN(C)C(=O)CSCc2cccc(C)c2)cc1OCC do in these assays?
ALR H2O2 inh: 22; rRNA inh HTS: -17; FGF22 binding: inactive; RanGTP-Imp inh: 1.7; MLL AF4-AF9 inh: 1.5; T cruzi repl: -4; Calb FLC: -3; Beta cell apopt: -3; rRNA inh HTS OD600: -26; rRNA inh HTS RFP: 1.9

How did Cc1c(NC(=O)CCC(=O)N2CCOCC2)c(=O)n(-c2ccccc2)n1C do in these assays?
ALR H2O2 inh: 4; RanGTP-Imp inh: 4.2; T cruzi repl: -3; Calb FLC: 5; Beta cell apopt: -2

Results for Cc1ccc(C(=O)/C=C/c2cc(Br)cc(Br)c2O)o1 ?
ALR H2O2 inh: 5; rRNA inh HTS: -12; FGF22 binding: inactive; RanGTP-Imp inh: -4.9; MLL AF4-AF9 inh: 1.8; T cruzi repl: 1; Calb FLC: 55; Beta cell apopt: 3; rRNA inh HTS OD600: -10; rRNA inh HTS RFP: -0.3

How did CC(C)NC(=O)C(=O)NCCCN1CCOCC1 do in these assays?
ALR H2O2 inh: -23; rRNA inh HTS: 2; FGF22 binding: inactive; RanGTP-Imp inh: -2.0; MLL AF4-AF9 inh: -1.5; T cruzi repl: -10; Calb FLC: -16; rRNA inh HTS OD600: -5; rRNA inh HTS RFP: 0.8

How did N#Cc1ccc(C2=NC(C(F)(F)F)(C(F)(F)F)c3c(n(Cc4ccco4)c(=O)[nH]c3=O)N2)cc1 do in these assays?
ALR H2O2 inh: 96*; RanGTP-Imp inh: -1.1; T cruzi repl: -5; Calb FLC: -12; Beta cell apopt: 16

How did O=C(NCCCc1ccccc1)c1c(O)nc2sccn2c1=O do in these assays?
ALR H2O2 inh: 2; rRNA inh HTS: 0; FGF22 binding: inactive; RanGTP-Imp inh: -3.4; MLL AF4-AF9 inh: -0.8; T cruzi repl: -10; Calb FLC: -23; rRNA inh HTS OD600: 11; rRNA inh HTS RFP: -3.3

What do the screens show for `CC(=O)c1ccc(S(=O)(=O)N2CCN(CC#N)CC2)cc1`?
ALR H2O2 inh: -5; rRNA inh HTS: 9; FGF22 binding: inactive; RanGTP-Imp inh: 4.8; MLL AF4-AF9 inh: -12; T cruzi repl: -3; Calb FLC: 3; Beta cell apopt: 0; rRNA inh HTS OD600: 3; rRNA inh HTS RFP: -3.5

How did Cc1cc2cc(C)c3nnc(SCC(=O)N4CCCc5ccccc54)n3c2cc1C do in these assays?
ALR H2O2 inh: -6; RanGTP-Imp inh: 2.1; T cruzi repl: 9; Calb FLC: 4; Beta cell apopt: -6

What do the screens show for `COc1ccc(OCCNC(=O)c2ccccc2OCC(=O)N2CCCCC2)cc1`?
ALR H2O2 inh: -2; RanGTP-Imp inh: 4.0; T cruzi repl: 1; Calb FLC: 7; Beta cell apopt: -3

Results for CC(=O)c1coc2ccc(OCCN3CCCCC3)cc12 ?
ALR H2O2 inh: 6; rRNA inh HTS: 7; RanGTP-Imp inh: -0.3; MLL AF4-AF9 inh: -20; T cruzi repl: 13; Calb FLC: -2; Beta cell apopt: -5; rRNA inh HTS OD600: 2; rRNA inh HTS RFP: -8.0

How did O=C(Oc1ccc(/C=N/NC(=O)c2ccccn2)cc1)c1cccc(Br)c1 do in these assays?
ALR H2O2 inh: 1; rRNA inh HTS: 7; FGF22 binding: inactive; RanGTP-Imp inh: 0.2; MLL AF4-AF9 inh: -5.5; T cruzi repl: -19; Calb FLC: inconclusive; Beta cell apopt: 8; rRNA inh HTS OD600: 7; rRNA inh HTS RFP: -2.4

What do the screens show for `CC1C(=O)O[C@@H]2C[C@@H](C)[C@@H]3CCC(=O)[C@@]3(C)[C@@H](O)[C@H]12` (stereo not given in full)?
ALR H2O2 inh: 0; rRNA inh HTS: 2; FGF22 binding: inactive; RanGTP-Imp inh: -5.2; MLL AF4-AF9 inh: -11; T cruzi repl: -12; Calb FLC: -5; Beta cell apopt: -1; rRNA inh HTS OD600: -6; rRNA inh HTS RFP: 14

What do the screens show for `CC1(C)CC(=O)C=C(NCc2ccccc2)C1`?
ALR H2O2 inh: 17; rRNA inh HTS: 10; FGF22 binding: inactive; RanGTP-Imp inh: -0.4; MLL AF4-AF9 inh: -3.8; T cruzi repl: -16; Calb FLC: 2; Beta cell apopt: -8; rRNA inh HTS OD600: 2; rRNA inh HTS RFP: -0.3

Results for CC1CCN(S(=O)(=O)c2cccc(C(=O)Nc3ccccn3)c2)CC1 ?
ALR H2O2 inh: -11; RanGTP-Imp inh: inconclusive; T cruzi repl: -6; Calb FLC: -15; Beta cell apopt: -7

What do the screens show for `O=C(CCN1C(=O)S/C(=C/c2ccccc2)C1=O)Nc1ccc(C(=O)O)c(O)c1`?
ALR H2O2 inh: 5; rRNA inh HTS: -15; RanGTP-Imp inh: -0.9; MLL AF4-AF9 inh: 7.5; T cruzi repl: -16; Calb FLC: -2; Beta cell apopt: -4; rRNA inh HTS OD600: -8; rRNA inh HTS RFP: 0.4

Results for O=C(CSc1nc2ccccc2o1)Nc1ccccc1 ?
RanGTP-Imp inh: -1.7; T cruzi repl: 3; Calb FLC: -19; Beta cell apopt: -9

How did CN(C)c1ccc(C(=O)NCC(c2cccs2)N2CCOCC2)cc1[N+](=O)[O-] (stereo not given) do in these assays?
ALR H2O2 inh: 2; rRNA inh HTS: 7; FGF22 binding: inactive; RanGTP-Imp inh: -3.3; MLL AF4-AF9 inh: 8.4; T cruzi repl: 0; Calb FLC: -2; Beta cell apopt: -3; rRNA inh HTS OD600: 13; rRNA inh HTS RFP: -1.1

What do the screens show for `COC(=O)c1cc(O)cc(OC)c1C(=O)c1c(O)cc(C)cc1O`?
ALR H2O2 inh: 12; FGF22 binding: inactive; RanGTP-Imp inh: 7.7; MLL AF4-AF9 inh: -0.5; T cruzi repl: -2; Calb FLC: 12

What do the screens show for `O=S(=O)(NCc1cccnc1)c1cccc2nsnc12`?
ALR H2O2 inh: -14; RanGTP-Imp inh: -2.8; T cruzi repl: -20; Calb FLC: -5; Beta cell apopt: 3

What do the screens show for `COc1ccc(OC)c(S(=O)(=O)Nc2ccc(O)c3ccccc23)c1`?
ALR H2O2 inh: 38; RanGTP-Imp inh: -1.4; T cruzi repl: 12; Calb FLC: -6; Beta cell apopt: 103*

What do the screens show for `Cc1ccnn1-c1ccc(C(=O)N2CCCN(S(=O)(=O)c3ccc(F)cc3)CC2)cc1`?
rRNA inh HTS: 0; FGF22 binding: inactive; MLL AF4-AF9 inh: -1.3; Beta cell apopt: -1; rRNA inh HTS OD600: -10; rRNA inh HTS RFP: 1.3

What do the screens show for `NS(=O)(=O)c1ccc(NC(=O)Cn2nc(C(=O)O)c3ccccc3c2=O)cc1`?
ALR H2O2 inh: 4; rRNA inh HTS: 1; FGF22 binding: inactive; RanGTP-Imp inh: 7.1; MLL AF4-AF9 inh: 0.4; T cruzi repl: -11; Calb FLC: 1; Beta cell apopt: 3; rRNA inh HTS OD600: 9; rRNA inh HTS RFP: 0.8

Results for Cc1cccnc1NC(=O)c1cccc(S(=O)(=O)N2CCN(c3ccccc3)CC2)c1 ?
ALR H2O2 inh: 6; rRNA inh HTS: -4; FGF22 binding: inactive; RanGTP-Imp inh: 2.7; MLL AF4-AF9 inh: 3.3; T cruzi repl: 6; Calb FLC: -13; Beta cell apopt: -6; rRNA inh HTS OD600: -6; rRNA inh HTS RFP: 1.5

What do the screens show for `Cc1nn(C)c(Cl)c1C(=O)NCC(=O)NCc1ccccc1`?
ALR H2O2 inh: -4; rRNA inh HTS: 8; FGF22 binding: inactive; RanGTP-Imp inh: 1.0; MLL AF4-AF9 inh: -0.2; T cruzi repl: -8; Calb FLC: 1; Beta cell apopt: -4; rRNA inh HTS OD600: 16; rRNA inh HTS RFP: 0.4

What do the screens show for `O=C(N/N=C\c1cc([N+](=O)[O-])ccc1N1CCCC1)c1ccccn1`?
ALR H2O2 inh: -5; rRNA inh HTS: 9; FGF22 binding: inactive; RanGTP-Imp inh: -0.3; MLL AF4-AF9 inh: -1.3; T cruzi repl: -5; Calb FLC: -26; Beta cell apopt: -1; rRNA inh HTS OD600: 8; rRNA inh HTS RFP: -0.7

Screening results: PubChem, Broad Institute
